Sa ugtP lethal: kills S. aureus RN4220 lacking UgtP; growth inhibition, % (no concentration beside the values); S. aureus RN4220 ugtP deletion, OD600 growth, 16 h; some inactives read as strong as hits; actives 0.54% (n = 330,000);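 active = z-score under -3 and OD600 up to 0.15 on both plates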;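 note: plate controls were untreated wells for no effect and antibiotic for full effect; wells of about 80 µL received 100 nL stock; the first replicate is given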
PrP UTR inh: suppresses PrP 5' UTR mRNA reporter expression. actives 0.35% (n = 340,000). inhibition, % (test concentration not listed). AID 488862. cell-based PrP 5' UTR mRNA reporter, plate reader;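 active = every replicate at 50% or more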;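 note: 0 = median of the neutral control wells; tested in H4 reporter cells; numbers are from one replicate; inactives centre near -14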
BJeLR viability: BJeLR cell viability loss; BJeLR (HRASV12) viability, CellTiter-Glo ATP luminescence, 48 h; reference of the scale not given here; inhibition, % (test concentration not listed); actives 0.17% (n = 300,000); AID 1554;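 active = replicate mean above 50%; inconclusive = above 50% but judged a plate artefact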;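 note: 50 nL library stock added to about 25 µL; numbers are from one replicate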
RN4220 kill: S. aureus RN4220 growth inhibition; OD600, 16 h; inhibition, % (test concentration not listed); actives 0.33% (n = 330,000); AID 1259311;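 active = z-score of -3 or lower and OD600 up to 0.18 on both plates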;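 note: plate controls were untreated cells for no effect and reference antibiotic for full effect; stock transfer was 100 nL into about 80 µL; one replicate is shown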
Bead autofluor: compound fluorescence in toxin protease inhibitor counterscreen. actives 3.1% (n = 360,000). compound autofluorescence counterscreen, microsphere flow cytometry; hits give high values. fluorescence intensity (concentration not given with the values);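 active = at least 3 SD above the mean of all compounds, about 16000 in these data; inconclusive = too few beads counted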;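 note: 100 nL of 1 mM stock went into each well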
Mtb hypoxia rep: reduces hypoxia-regulated biosensor signal in M. tuberculosis | M. tuberculosis hypoxia-regulated fluorescent reporter, fluorescence | fluorescence inhibition, % (test concentration not listed) | actives 0.1% (n = 300,000);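 active = 35 to 45% if threefold the growth effect, above 45% if 1.5-fold the growth effect; inactive = the rest, general growth blockers included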;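 note: wells of about 50 µL received 100 nL stock; 0% = vehicle wells and 100% = reference inhibitor wells; whole bacteria with a GFP reporter of the hypoxia response; strong numbers were not always called active; many hits fall short of the cut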
Mtb hypoxia rep growth: recorded beside Mtb hypoxia rep, whose call it bears; growth inhibition, %; measured here: M. tuberculosis growth (absorbance);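 0% = vehicle and 100% = reference antibiotic; read after six days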
The depositor's hits bear a star; ? = inconclusive; . = no result given. Compounds were not picked by outcome; overall some 4% were active at least once.

mol,Sa ugtP lethal,PrP UTR inh,BJeLR viability,RN4220 kill,Bead autofluor,Mtb hypoxia rep,Mtb hypoxia rep growth
O=C(CCc1ccccc1)NC1(Cc2ccccc2)CCN(CCCc2ccccc2)C1=O (stereo not given),6,-5,.,1.1,2989,5,9
Cc1cc(N(C(=O)c2ccco2)C(C(=O)NC2CCCCC2)c2ccccc2)ccc1-n1cnnn1 (stereo not given),-3,1,3,-2.2,5729,-8,-3
Cc1ccc(S(=O)(=O)N2CCN(C(=O)c3cc(=O)c4ccccc4o3)CC2)cc1,6,-23,-2,0.9,5013,2,0
CCN(/N=C/c1ccccc1)c1cc(=O)n(C)c(=O)[nH]1,.,-16,3,.,2392,.,.
CCOC(=O)c1cc(C)nc(S(C)(=O)=O)c1C#N,4,-19,-10,1.8,6148,1,-3
COC(=O)CC(NC(=O)CN1CCN(c2ccc(F)cc2)CC1)c1cccc(F)c1 (stereo not given),4,-8,-5,3.1,3387,15,4
COc1ccc(OCCN(C)CC(=O)Nc2ccccc2SC)cc1,7,-1,5,4.2,6197,1,3
O=C(COc1ccccc1Cl)N1CCN(c2ccc([N+](=O)[O-])c(N3CCCCC3)c2)CC1,-24,-8,0,-2.9,6447,8,5
O=C(COc1ccc(Br)cc1)NCCNC(=O)c1ccncc1,-3,-9,-6,-4.5,5681,5,12
O=C(NCCS(=O)(=O)N1CCCC1)c1ccccc1,13,-6,4,5.7,?,-10,-10
COC(=O)c1ccc(CSC(=N)N)o1,5,-25,6,13,4092,11,7
COc1ccc(N2CCN(C(=O)COC(=O)c3cccc(OC)c3O)CC2)cc1,4,-20,.,2.1,3189,3,9
O=C(CCSc1nc(-c2ccco2)cc(C(F)(F)F)n1)NCCc1ccccc1,0,-20,-4,4.0,2487,9,7
COCCCNC(=O)C[C@H]1C[C@H](C(=O)N2CCOCC2)[C@@]2(C)c3[nH]c4ccc(Cl)cc4c3CCN2C1=O,1,-17,.,1.7,4045,-12,-7
Cc1ccccc1OCC(=O)NN=Cc1ccc(N(C)C)cc1,-1,.,.,17,.,9,15
O=C(Oc1ccc(N(C(=O)c2ccncc2)S(=O)(=O)c2ccc(F)cc2)cc1)c1ccncc1,-3,-10,1,2.8,2623,5,3
CCc1ccccc1NC(=O)Cn1nnc(C(=O)NCc2cccc(OC)c2)c1N,6,-7,1,3.7,5781,-2,-3
Cc1cccc(Nc2sc(C(=O)c3cc4cc(Cl)ccc4o3)c(N)c2C#N)c1,.,-5,2,.,3653,.,.
Cc1cc(NN=Cc2ccccc2[N+](=O)[O-])nc(-n2nc(C)cc2C)n1,0,.,.,21,.,10,2
CC(=O)Nc1ccc(NS(=O)(=O)c2cc(Cl)sc2Cl)cc1,6,-21,-3,1.2,3035,8,4

Next records follow:
mol,Sa ugtP lethal,PrP UTR inh,BJeLR viability,RN4220 kill,Bead autofluor,Mtb hypoxia rep,Mtb hypoxia rep growth
Cc1ccc(CN2CCN(CC(=O)NCc3ccccc3)CC2)cc1,5,12,1,0.3,3241,10,-4
O=C(O)CC(c1ccccc1)n1cnnn1 (stereo not given),-6,-8,-3,-5.6,3664,.,.
Cc1ccsc1/C=N/NC(=O)c1cccs1,.,-41,13,.,2643,.,.
Cc1cc(C)c2nc(N3CCC(C(=O)NCC4CCCO4)CC3)sc2c1 (stereo not given),8,-11,-18,5.0,5767,-4,-1
CCCn1cnc2c(sc3nc4c(cc32)CSC(C)(C)C4)c1=O,4,-107,-4,2.2,7982,9,6
COc1ccc([C@@H]2[C@@H]3C(=O)N(C(C)(C)C)C(=O)[C@@H]3[C@]3(Cc4ccc(Cl)cc4)C(=O)N(c4cccc(Br)c4)C(=O)N23)cc1,.,-16,-6,.,3328,.,.
O=C(CSc1nnc2c(n1)[nH]c1ccccc12)NCc1ccco1,0,24,-1,3.8,4438,-2,10
COc1ccc(NC(=O)COC(=O)c2ccc(S(=O)(=O)N3CCCCCC3)cc2)c(OC)c1,9,-11,.,7.5,5800,4,3
CCc1ccccc1NC(=O)CSc1nnc([C@H](CCSC)NC(=O)OC(C)(C)C)o1,-1,-19,0,-1.7,4411,.,.
c1ccc(-c2[nH]ncc2CN2CCc3ccccc3C2)cc1,9,-1,-9,5.9,4654,1,7
O=C1CN(C(=O)N[C@@H](Cc2ccccc2)C(=O)N[C@H](C(=O)O)c2ccccc2)c2ccccc2N1,-2,-20,7,0.8,5681,7,5
COc1ccc(CCn2c(N)cc(=O)[nH]c2=O)cc1OC,-1,-18,-1,2.5,2025,4,-3
COC(C(=O)NC1CC1)c1ccccc1 (stereo not given),-1,-23,-3,4.5,2300,.,.
CC1CN(C(C)CO)C(=O)Cc2cc(NC(=O)Nc3ccc(C(F)(F)F)cc3)ccc2OC1CN(C)S(=O)(=O)c1ccc(Cl)cc1 (stereo not given),9,.,.,-1.5,.,14,7
Cc1[nH]c(=O)[nH]c(=O)c1/C=N/NC(=O)[C@@H](N)CC(C)C,.,5,2,.,4617,.,.
CCOc1ccc(OCC)c(NC(=O)C2CCN(S(=O)(=O)c3c(C)[nH]c(=O)[nH]c3=O)CC2)c1,2,-20,4,6.3,4306,5,-2
Cc1ccccc1N1CCN(S(=O)(=O)c2ccc3ccccc3c2)CC1,18,0,-4,0.5,4579,8,4
CC(=NNc1nc(Cl)c(Cl)cc1Cl)c1ccc(S(=O)(=O)NCc2ccco2)cc1,-14,.,.,4.5,.,14,7
Cc1cc(NC(=O)COC(=O)c2ccccc2[N+](=O)[O-])no1,2,-16,-1,4.3,4173,10,-4
COC(=O)NNC(=O)C1CCC(C(=O)NNC(=O)OC)CC1 (stereo not given),1,-24,-1,5.7,7110,9,4

Additional results follow:
mol,Sa ugtP lethal,PrP UTR inh,BJeLR viability,RN4220 kill,Bead autofluor,Mtb hypoxia rep,Mtb hypoxia rep growth
CCCCOc1ccc(C(=O)CCN2CCOCC2)cc1,13,-17,9,9.4,4576,5,-4
COc1ccc(CC(=O)OCC(=O)c2c[nH]c3ccccc23)cc1,6,-21,.,11,9727,7,-3
CC(C)COc1nc2ccccc2nc1N1CCN(C)CC1,7,-15,-4,-2.7,3761,9,8
CC1(C)NC(=O)N(CC(=O)N2CCN(S(=O)(=O)c3cc(Cl)ccc3Cl)CC2)C1=O,0,-6,.,-0.6,2891,3,-6
COc1ccc(-c2c(C)nc3c(-c4ccc(F)cc4)cnn3c2N)cc1,-2,-54,-2,-1.5,3710,13,8
CC(C)C1CCN(C(=O)C2CCC(=O)N(CCc3ccc(Cl)cc3)C2)CC1 (stereo not given),2,3,0,-3.5,5060,3,10
O=C(O)c1cc(S(=O)(=O)Nc2ccc3cn[nH]c3c2)ccc1Br,7,.,.,2.2,.,11,2
CCN(CC)c1ccc2cc(-c3nc4ccccc4n3C)c(=O)oc2c1,5,-17,41,6.2,16417*,10,12
CC(=O)N1CCc2cc(S(=O)(=O)NC(C(=O)Nc3nc(C)cs3)C(C)C)ccc21 (stereo not given),-2,0,6,-1.9,4746,-12,7
CC1CCc2c(sc(NC(=O)/C=C/c3cccs3)c2C(=O)O)C1 (stereo not given),-8,-8,-2,-4.7,3804,2,2
O=C(CN1C(=O)c2ccc([N+](=O)[O-])cc2C1=O)NC1CCS(=O)(=O)C1 (stereo not given),8,-5,0,0.1,4355,-1,-8
O=[N+]([O-])c1cc(CN(CCO)CCO)ccc1O,1,-12,-7,0.5,3668,7,-1
CCCNC(=O)C(Cc1cccc(C#N)c1)NC(=O)c1ccc(C#N)cc1 (stereo not given),-14,-25,.,-1.9,2883,-2,-3
CC1=C(C(=O)OCC2CCCO2)C(c2coc3ccc(C)cc3c2=O)C2=C(CCCC2=O)N1 (stereo not given),11,-8,5,-1.2,4073,3,7
COc1ccc(CNC(=O)CN(C(=O)c2ccc(CN3CCOCC3)o2)C2CCCC2)cc1,-4,-12,1,3.0,11040,-2,3
CCOc1ccc(-c2ncncc2-c2ccc(OC)c(OC)c2)c(O)c1,-3,-9,-9,5.0,3878,7,6
CC(C)(C)c1ccc(S(=O)(=O)N2CCN(c3ccccn3)CC2)cc1,4,-9,5,2.9,5987,5,5
CCN1C(=O)C2C(C)C3=C4C(CC(C(=O)OC)=CC(C(=O)OC)C4C(CC)(CC)C3=O)C2C1=O (stereo not given),4,.,.,2.6,.,17,5
CCc1cc(C(=O)N(CCCOC)c2c(N)n(Cc3ccccc3)c(=O)[nH]c2=O)sc1C,7,-33,-6,4.1,5129,3,18
Cc1ccc(Cn2c(=O)c3ccccc3n3c(CCC(=O)O)nnc23)cc1,3,-10,-8,4.5,5627,.,.

Of the compounds above, 2 have a CF3 group:
mol,Sa ugtP lethal,PrP UTR inh,BJeLR viability,RN4220 kill,Bead autofluor,Mtb hypoxia rep,Mtb hypoxia rep growth
O=C(CCSc1nc(-c2ccco2)cc(C(F)(F)F)n1)NCCc1ccccc1,0,-20,-4,4.0,2487,9,7
CC1CN(C(C)CO)C(=O)Cc2cc(NC(=O)Nc3ccc(C(F)(F)F)cc3)ccc2OC1CN(C)S(=O)(=O)c1ccc(Cl)cc1 (stereo not given),9,.,.,-1.5,.,14,7

Other records
mol,Sa ugtP lethal,PrP UTR inh,BJeLR viability,RN4220 kill,Bead autofluor,Mtb hypoxia rep,Mtb hypoxia rep growth
COc1ccc(NC(=O)CCN2C(=O)/C(=C/c3ccc4c(c3)OCO4)SC2=S)cc1,7,-4,-13,1.6,4530,-8,6
O=C(O)CCCc1nc2ccccc2s1,7,-9,5,5.0,2371,.,.
COc1cc(C=NNc2ccnc(=O)[nH]2)ccc1O,1,.,.,0.2,.,2,5
O=C(NN=Cc1ccccc1Cl)c1[nH]c2ccc(Br)cc2c1-c1ccccc1,-12,.,.,4.4,.,-4,3
COc1ccc(CC(=O)NC(C)CCc2ccccc2)cc1 (stereo not given),6,-3,5,6.2,3370,5,3
CN(CC(=O)Nc1ccccc1C(F)(F)F)C(=O)C1CCN(S(=O)(=O)c2ccc3c(c2)OCCO3)CC1,4,-19,-5,-1.5,5579,-3,0
Cc1ccc(NC(=O)CSCc2cc(=O)n3cc(C)sc3n2)cc1,4,6,-6,2.8,6027,-10,-14
COc1ccc(C)cc1NCC(=O)Nc1ccc(C(C)(C)C)cc1,10,-18,-4,0.3,2038,8,4
C/C(=N\NC(=O)Cc1cccn1C)c1cccc2ccccc12,.,-4,5,.,3481,.,.
Fc1cc(F)cc(NC(=S)NN2CCOCC2)c1,4,-18,3,-1.7,2586,-2,2
O=C(c1ccco1)N1CCN(C(=O)C2CC2)CC1,-2,-22,1,6.4,2565,14,2
COc1ccccc1NC(=O)Nc1nc(CC(=O)Nc2ccccc2F)cs1,-6,-9,-4,0.2,5657,6,1
Nc1c(-c2ccc(Cl)cc2)cnc2c(-c3ccc(F)cc3)cnn12,-20,-73,-8,-3.6,4144,-14,4
CC(Oc1ccccc1)C(=O)Nc1ccccc1F (stereo not given),0,-23,3,4.0,6786,6,13
COc1ccc(Cl)cc1C(=O)Nn1cnnc1,2,-21,2,1.7,3814,12,-11
COc1ccc(S(=O)(=O)N(CC(=O)NN=Cc2cccs2)c2cc(C)cc(C)c2)cc1OC,-9,.,.,3.5,.,14,4
COc1ccc(Cl)cc1Nc1nc2ccc(C)cc2n2cnnc12,-5,-16,-3,-8.9,2897,3,-4
CCOC(=O)N1CCC(NS(=O)(=O)c2cc(C(=O)OC)n(C)c2)CC1,-2,2,1,4.8,4366,9,7
CC(=NNS(=O)(=O)c1ccc([N+](=O)[O-])cc1)c1cccs1,14,.,.,9.8,.,9,-6
O=C(Oc1cccc([N+](=O)[O-])c1)c1ccc2c(=O)n3c(nc2c1)CCC3,3,-21,.,6.3,5458,12,2

New compounds follow.
mol,Sa ugtP lethal,PrP UTR inh,BJeLR viability,RN4220 kill,Bead autofluor,Mtb hypoxia rep,Mtb hypoxia rep growth
CCOc1ccc2ccccc2c1C=Nn1cncn1,-1,.,.,3.7,.,21,-1
Cn1c(=O)c2c(nc(Br)n2CCSc2nnnn2-c2ccccc2)n(C)c1=O,-1,-17,-4,-1.8,20475*,-8,2
COc1ccc(F)cc1S(=O)(=O)Nc1ccncc1,4,-10,3,1.5,4081,-6,-12
CCOC(=O)C1=C(CS(=O)(=O)c2ccccc2)NC(=O)NC1c1cccc(OC)c1 (stereo not given),-4,-22,1,3.7,2672,1,9
COCc1[nH]nc2c1C(c1ccc(OC)c(OC)c1)C(C#N)=C(N)O2 (stereo not given),6,-12,6,3.2,3573,.,.

Bioassay records: PubChem BioAssay, several laboratories
